Screens deposited in PubChem by several laboratories.
MT1-MMP act inh – inhibitors of human MT1-MMP activation. P50281. HT1080 RFP-PRO-GFP cells, GFP/RFP ratio fluorescence, overnight; percent of plate control window, DMSO zero. GFP/RFP ratio change, % at 20 µM. 0.061% of 360,000 active;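 active means GFP/RFP ratio change of at least 30% with cell ATP level not reduced by more than half and red fluorescence within 50% of control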; further: strong numbers were not always called active
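Test system: HT1080 cells expressing an RFP-PRO-GFP fluorescent reporter construct / Compound dosing: single-point 20 µM compound, 1% DMSO / Schedule: cells overnight before dosing, compound overnight, 37 °C, 5% CO2 / Evaluation: GFP/RFP fluorescence ratio / Control set: DMSO and RFP-L50D-GFP cell wells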
CSC inhib – cancer stem cell inhibition; inhibition, % at 7.5 µM; AID 2717; 1.1% of 300,000 active; cancer stem cell-like cells viability, luminescence;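 active means mean at 75% or more and at least half the replicates too; inconclusive means mean and replicates disagree; tested in HMLE shEcad cells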;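 further: 0% = median of negative and 100% = median of positive control wells; the first replicate is given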
PABP FP inh – PABP-poly(A) binding inhibition; P11940; PABP-poly(A) RNA binding, fluorescence polarization; inhibition, % at 35 µM; 1% of 290,000 active;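 active means 50% or more with normal probe brightness, or confirmed in later tests; inconclusive means above 50% with abnormal brightness, or retests that disagree; inactive means below 50% or failed in later tests; about a fifth of its hits are not listed in these tables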;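 further: calls also rest on retests at 20 µM and on dose response follow-up; controls were probe without protein and protein plus probe with vehicle; some compounds called inactive have numbers as strong as hits; many hits fall short of the cut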
eIF4H inh – inhibitors of RNA binding by human eIF4H. Q15056. eIF4H fluorescence polarization binding assay. inhibition, % at 35 µM. 0.94% of 290,000 active;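 active means 50% or more with normal probe brightness, or confirmed in later tests; inconclusive means above 50% with abnormal brightness, or retests that disagree; inactive means below 50% or failed in later tests; about a fifth of its hits are not listed in these tables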;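 further: calls also rest on retests at 20 µM and on dose response follow-up; 0% = protein and probe with vehicle and 100% = probe without protein; strong numbers were not always called active; many hits fall short of the cut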
Yeast UUG start – alters start codon recognition fidelity in yeast. S. cerevisiae UUG-firefly luciferase reporter, luminescence/redox ratio. activity score, % at 18.7 µM. 0.13% of 350,000 active. AID 602363;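 active means replicate mean at a twofold rise or more, about +100% in these data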;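 further: firefly luciferase made from a UUG start codon reports start codon fidelity; reporter light over untreated wells divided by growth signal over untreated wells; some hits fall short of that in this replicate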
Env fusion inh – HIV envelope-mediated fusion inhibition. 1.1% of 360,000 active. inhibition, % at 12.3 µM. HeLa-JRFL Env/CEM21 cell fusion, luciferase. AID 651610;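 active means mean replicate inhibition score of at least 50 and every replicate individually at or above 50; inconclusive means only one of the two criteria met; inactive means mean below 50 and not all replicates reaching 50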;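 further: 0% = plate neutral controls and 100% = maraviroc near 300 nM; one replicate is shown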
Rce1 inhib – inhibitors of yeast Ras-converting enzyme; Q03530; yeast membranes, quenched prenylated peptide cleavage fluorescence; calls only; 0.27% of 290,000 active; AID 2563;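 active means fall in fluorescence gain of 50% or more versus controls, with final raw signal at or below 3038400; inconclusive means same 50% fall but final raw signal above 3038400; inactive means fall in fluorescence gain under 50%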;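 further: plate controls were neutral control wells for no effect and wells lacking membranes for full effect; tested at 10 µM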
Target sequence (Q03530 whole entry, looked up): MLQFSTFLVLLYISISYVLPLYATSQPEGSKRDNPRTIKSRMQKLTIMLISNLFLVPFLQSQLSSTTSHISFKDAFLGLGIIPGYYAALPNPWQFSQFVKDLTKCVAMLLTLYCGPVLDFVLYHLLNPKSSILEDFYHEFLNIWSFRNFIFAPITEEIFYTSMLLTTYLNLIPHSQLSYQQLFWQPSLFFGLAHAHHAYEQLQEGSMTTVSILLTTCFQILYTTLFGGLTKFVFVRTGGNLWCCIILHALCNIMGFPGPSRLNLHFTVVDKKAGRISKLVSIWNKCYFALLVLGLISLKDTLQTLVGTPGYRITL
eIF4H inh retest – also measured in eIF4H inh; calls as there; inhibition, %; compound at 20 µM; confirmation average;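 mean of two retest wells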
PABP FP inh retest – recorded beside PABP FP inh, whose call it bears; inhibition, %; compound at 20 µM; confirmation repeats;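 mean of two retest wells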
MT1-MMP act inh RFP – second read-out of MT1-MMP act inh, no call of its own (marks repeat the call); RFP signal change, %; measured here: RFP expression control read;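 0 = vehicle wells; hits needed this value within 50% of zero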
The depositor's hits bear a star; i = inactive; ? = inconclusive; . = no result given; & = joins results of further samples. Not all compounds are listed; rates above refer to the full screens.

SMILES	MT1-MMP act inh	MT1-MMP act inh RFP	CSC inhib	PABP FP inh	eIF4H inh	Yeast UUG start	Env fusion inh	Rce1 inhib	others
CCn1c(O)c(C(=O)CC2NCCc3ccccc32)c(=O)n(CC)c1=S (stereo not drawn)	-17	9	-7	6	67	-18	.	i	eIF4H inh retest=-2;PABP FP inh retest=8
COc1ccc(CN2CCCC(C(=O)c3ccc(Cl)cc3)C2)c(O)c1 (stereo not drawn)	1	6	4	-8	-1	-9	-1	i
N[C@@H](Cc1ccccc1)C(=O)N1C[C@H]2C[C@@H](C1)c1cccc(=O)n1C2	-2	-3	-3	7	-6	-15	.	i
Cc1ccccc1N1CCN(C2CCCN(C(=O)COc3ccccc3)C2)CC1 (stereo not drawn)	-2	-4	1	2	-4	-7	10	i
Oc1ccc(CCN2CCCCC2)cc1	-1	0	.	.	.	-12	7	.
O=[N+]([O-])c1ccc(Nc2ccccc2)cc1	2	2	.	-5	0	.	-114	i
Clc1ccc(-c2nc3ccc(Cl)cn3c2CN2CCOCC2)cc1	2	0	-1	-6	5	4	.	i
CCN1C(=O)NC(=O)/C(=C\c2ccc(N3CCOCC3)cc2OC)C1=O	.	.	4	78*	?	.	-79	i
CC[N+](CC)(CC)CCCOC(=O)C(O)(c1ccccc1)C1CCCCC1 (stereo not drawn)	1	7	-2	0	-2	.	.	i
O=c1[nH]c(=O)n(-c2cccc(Cl)c2)c(O)c1/C=N/c1ccccn1	-9	2	8	63*	85*	12	.	i
CCCc1cc(=O)oc2cc(OCC(=O)N3CCC(C(=O)O)(c4ccccc4)CC3)ccc12	-1	5	-10	8	-4	-8	.	.
COc1ccccc1-n1c(-c2ccc(C)cc2)nc2ccccc2c1=O	-1	-3	.	-11	-2	-1	22	i
Cc1ccc2c(c1)C1CN(C)CCC1N2C(=O)Cc1cccs1 (stereo not drawn)	-4	-5	-4	2	-5	4	.	i
CCN1CCN(CC(=O)c2c(C)n(Cc3ccccc3)c3ccc(OC)cc23)CC1	1	6	-3	-12	-5	-10	10	i
Oc1ccc(Cl)cc1	1	1	.	.	.	-12	13	.
COC(=O)C1C(OC(=O)c2ccccc2)CC2CCC1N2C (stereo not drawn)	-2	5	2	11	10	-3&-11	.	i
CCC(c1nnnn1-c1ccc(OC)cc1)N1CCC(n2c(=O)[nH]c3ccccc32)CC1 (stereo not drawn)	-1	-1	.	.	.	-2	-105	.
O=C1NCN(c2ccccc2)C12CCN(C(c1ccnc3ccccc13)c1nnnn1-c1ccc3c(c1)OCCO3)CC2 (stereo not drawn)	0	-1	.	.	.	-18	-65	.
COC(=O)C1C2c3ccccc3C(c3ccccc32)C1(C)C(=O)OC (stereo not drawn)	-2	4	.	.	.	5	-65	.
Cc1nc2ccccc2c(=O)n1-c1ccc(-c2ccccc2)cc1	-1	-5	-6	3	-3	9	7	i
Fc1ccc(C(OCCN2CCCC2)c2ccc(Br)cc2)cc1 (stereo not drawn)	7	9	62	-2	-6	-9	-6	i
COc1ccc(-c2cc(=O)oc3c(C)c(OC(C)C(=O)N4C[C@H]5C[C@@H](C4)c4cccc(=O)n4C5)ccc23)cc1 (stereo partly drawn)	-2	-3	18	-8	4	14	.	i
O=c1c2ccccc2nc(/C=C/c2ccccc2)n1-c1ccc(O)cc1	0	-10	4	-5	2	-16	2	i
Cc1ncc([N+](=O)[O-])n1CCOC(N)=O	0	5	-6	-9	0	-16	-4	i
COc1cccc(-c2cc(C(F)(F)F)n3nc(C(=O)N4CCC5(CC4)OCCO5)cc3n2)c1	8	1	1	2	10	.	.	i
CCC(=NCC1CCCO1)c1c(O)n(-c2ccccc2C)c(=O)[nH]c1=O (stereo not drawn)	6	-1	-10	-1	-6	3	-5	i
COc1ccc(Br)cc1CNCCc1ccc2c(c1)OCO2	1	0	7	.	.	.	13	i
C=C[C@@]12CN(C)[C@H]3[C@H]1[C@@]1(C(=O)Nc4ccccc41)C1CC2[C@@H]3CO1	-2	2	0	.	.	-19	14	.
Brc1ccccc1CNCCc1ccc2c(c1)OCO2	-1	3	0	5	34	-2	-14	i
C[C@H](CO)N1C[C@H](C)[C@@H](CN(C)C(=O)Oc2ccccc2)OCc2cnnn2CCCC1=O	3	3	.	.	.	4&-6	37	.
C=C[C@H]1CN2CC[C@H]1C[C@@H]2[C@@H](O)c1ccnc2ccccc12	-1	1	-7	.	.	-23	-34	.
CC(=O)Nc1ccc(OCCF)cc1	6	1	-1	-3	1	.	-13	i
COc1cc(C(=O)N/N=C/C23CC[C@@H](O)CC2(O)CC[C@@H]2[C@@H]3CCC3(C)C(C4=CC(=O)OC4)CCC23O)ccc1O (stereo partly drawn)	2	5	30	2	0	.	-4	i
Cn1c(O)c(/C=C/C=Nc2ccccc2)c(=O)n(C)c1=S	-1	10	-32	-2	?	.	-39	i
Cn1cccc1C1CCCN1CC(=O)Nc1ccc(C#N)c(Cl)c1 (stereo not drawn)	3	0	-8	.	.	2	-9	.
Cn1cc(C(=O)N2CCCCC2)c2ccccc21	0	-3	-5	-14	4	.	-8	i
Cc1ccc(N2C(=O)NC(=O)/C(=C\c3cnc(-c4ccccc4)nc3)C2=O)cc1	-24	1	-28	-6	58*	.	-3	i	eIF4H inh retest=66*;PABP FP inh retest=37
CC(=NCc1cccnc1)c1c(O)n(-c2ccc(C)cc2)c(=O)[nH]c1=O	5	4	7	7	-6	-10	-50	i
CCCOC(=O)C1C2c3ccccc3C(c3ccccc32)C1C(=O)O (stereo not drawn)	-1	4	1	10	1	.	17	i
CC1(C)C2CC=C(CN3CCOCC3)C1C2 (stereo not drawn)	0	4	1	10	-10	-16	.	i
Cc1cc(C(=O)Nc2ccccc2)nn1C(C)(C)C	0	-2	-1	-1	-8	-16	-29	i
CCOC(=O)c1c(C)n(Cc2ccccc2)c2ccc(OCC(O)Cn3nc(C)nc3C)cc12 (stereo not drawn)	1	2	-9	5	-10	-40	18	i
O=c1cccc2n1CC1CC2CN(c2ncnc3c2cnn3-c2ccccc2)C1 (stereo not drawn)	-1	-2	-3	12	2	-18	.	i
CN(C)C(=O)Oc1ccc(OCc2n(C)c3ccccc3[n+]2C)cc1	-3	-2	-12	4	-1	.	7	i
COCCCNC(=O)Cn1cc(/C=C2\C(=O)NC(=O)N(c3ccccc3F)C2=O)c2ccccc21	-2	3	-2	?	?	-2	.	i
CC(N)Cc1cn(Cc2ccccc2)c2ccccc12 (stereo not drawn)	-5	-9	-4	4	0	-16	10	i
CC12CCC(=O)C=C1CCC1C2C(O)CC2(C)C(O)CCC12 (stereo not drawn)	1	-2	.	.	.	-6	-122	.
O=C(O)C1C2c3ccccc3C(=O)C1(C(=O)O)c1ccccc12 (stereo not drawn)	-1	2	.	.	.	1	-12	.
CCOC(=O)c1c(N)n(Cc2ccco2)c2nc3ccccc3nc12	-94	11	0	?	?	2	-54	.
COc1ccc(C2N3CC(C)(C)CN23)cc1 (stereo not drawn)	.	.	-11	-4	-5	.	.	i
CC(C)(C)c1ccc(CN2C(=O)CN=C(c3ccccc3)c3ccccc32)cc1	-10	-18	35	12	39	-12	87*	i
O=C(Cn1ncc2ccccc21)N1CCC2(CC1)OCCO2	-1	0	0	31	13	-11	.	i
COc1ccc(CCNCc2ccncc2)cc1	7	4	22	40	14	.	.	i
CC12CC[C@H]3[C@@H](CCC4(O)C[C@H](O)CCC34/C=N/NC(=O)Cc3ccccc3)C1(O)CCC2C1=CC(=O)OC1 (stereo partly drawn)	-10	3	8	-11	-2	-3&1	-43	i
COc1cccc(NP(=O)(Oc2ccccc2)Oc2ccccc2)c1	-7	-18	99*	-4	-6	.	32	i
CC(C)CN1Cc2cc(-c3ccccc3)ccc2-n2nncc2C1	2	2	.	.	.	-14	2	.
C=CCn1c(O)c(/C(CC)=N/NC(=S)Nc2ccccc2)c(=O)[nH]c1=O	6	5	-14	10	33	4	-60	i
CN1C(=O)C(=Cc2ccc(-c3cccc(Cl)c3)o2)C(=O)N(C)C1=O	.	.	-16	-4	62	.	.	i	eIF4H inh retest=-5;PABP FP inh retest=9
O=C(CCC(=O)N1CCC2(CC1)OCCO2)Nc1nnc(C2CCCCC2)s1	-1	-1	-6	4	-5	.	-1	i
CCN1C(=O)/C(=C/c2ccc3c(c2)CCN3CCCCl)C(=O)NC1=S	6	22	-6	-7	51	-25	-60	i	eIF4H inh retest=40;PABP FP inh retest=43
(list continues)
SMILES	MT1-MMP act inh	MT1-MMP act inh RFP	CSC inhib	PABP FP inh	eIF4H inh	Yeast UUG start	Env fusion inh	Rce1 inhib	others
CC(C)CNC(=O)c1c(N)n(Cc2ccc3c(c2)OCO3)c2nc3ccccc3nc12	-30	0	69	-7	5	-15	-129	i
COc1ccc(CCNCc2ccc(F)cc2)cc1OC	-11	1	3	-2	-9	-13	i	i
C=CCn1c(O)c(C(CC)=Nc2ccc(N(C)C)cc2)c(=O)[nH]c1=O	9	0	-3	8	8	-5	3	i
CC[N+](C)(CC)CCCCOc1ccc2c(c1)C(=O)c1cc(OCCCC[N+](C)(CC)CC)ccc1-2	3	-2	-4	6	37	-7	0	i
COc1cc(CCN)ccc1O	2	5	0	.	.	-18	.	.
COc1ccc(C(=O)C2CCCN(CCO)C2)c(C)c1 (stereo not drawn)	-1	2	1	-6	-3	-8	1	i
Cc1nn(Cc2ccccc2)c(Cl)c1C(=O)Nc1ccc(OC(F)(F)F)cc1	1	-7	25	0	-12	.	18	i
N=C1c2ccccc2CN1c1ccc(F)c([N+](=O)[O-])c1	1	0	-8	-3	-15	-12	-2	i
Cc1nnc(SCc2nc3ccccc3c(=O)n2-c2ccccc2Cl)n1N	1	1	-3	-9	-6	-10	119*	i
CCOC(=O)Cn1cc(C(=O)c2ccccc2)c2ccccc21	-2	-1	-15	-4	-20	8	-2	i
O=S(=O)(c1ccc(Cl)cc1Cl)N1CCCC1c1cccnc1 (stereo not drawn)	3	1	14	7	-8	.	13	i
O=C(Nc1ccc(C(F)(F)F)cc1)OC1CN2CCC1CC2 (stereo not drawn)	3	1	-1	-7	-2	.	8	.

Reprinted from the part before: two entries, then new ones.
SMILES	MT1-MMP act inh	MT1-MMP act inh RFP	CSC inhib	PABP FP inh	eIF4H inh	Yeast UUG start	Env fusion inh	Rce1 inhib	others
O=S(=O)(c1ccc(Cl)cc1Cl)N1CCCC1c1cccnc1 (stereo not drawn)	3	1	14	7	-8	.	13	i
O=C(Nc1ccc(C(F)(F)F)cc1)OC1CN2CCC1CC2 (stereo not drawn)	3	1	-1	-7	-2	.	8	.
Oc1ccc(Cl)cc1CN1CCN(Cc2ccccc2)CC1	-1	-2	-10	29	-7	-7	-91	i
C[C@]12CCC3C(CC[C@H]4C[C@H](O)CC[C@]34C)C1C[C@@H](CCCCl)[C@@H]2O (stereo partly drawn)	6	-4	2	.	.	9	-7	.
C=CCn1cc(C=C2C(=O)NC(=O)NC2=O)c2ccccc21	-4	4	-3	?	?	0	-18	i
O=C1NC(=O)C(=Cc2ccc(-c3ccc(F)cc3O)o2)C(=O)N1	-26	8	30	-38	37	-17	.	i
CCN(CC)C(=O)c1ccc(NC(=O)COc2ccc(-c3nn(C)c(=O)c4ccccc34)cc2)cc1	2	-9	2	3	-1	2	-15	.
CN1CCCC1C(O)(c1ccccc1)c1ccccc1 (stereo not drawn)	-1	4	2	.	.	-15	-22	i
O=C(CN1CCN(Cc2cccc(Cl)c2)C1=O)N1CCC2(CC1)OCCO2	3	6	1	0	-4	-6	.	i
